STK33 kinase inh – human STK33 kinase inhibition; purified STK33, MBP phosphorylation, ADP-Glo luminescence; inhibition, % at 10 µM; actives 0.073% (n = 320,000);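 active means inhibition at or above 25%, using the most active replicate where run in duplicate; inactive means inhibition below 25%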
Target sequence (Q9BYT3 whole entry, looked up): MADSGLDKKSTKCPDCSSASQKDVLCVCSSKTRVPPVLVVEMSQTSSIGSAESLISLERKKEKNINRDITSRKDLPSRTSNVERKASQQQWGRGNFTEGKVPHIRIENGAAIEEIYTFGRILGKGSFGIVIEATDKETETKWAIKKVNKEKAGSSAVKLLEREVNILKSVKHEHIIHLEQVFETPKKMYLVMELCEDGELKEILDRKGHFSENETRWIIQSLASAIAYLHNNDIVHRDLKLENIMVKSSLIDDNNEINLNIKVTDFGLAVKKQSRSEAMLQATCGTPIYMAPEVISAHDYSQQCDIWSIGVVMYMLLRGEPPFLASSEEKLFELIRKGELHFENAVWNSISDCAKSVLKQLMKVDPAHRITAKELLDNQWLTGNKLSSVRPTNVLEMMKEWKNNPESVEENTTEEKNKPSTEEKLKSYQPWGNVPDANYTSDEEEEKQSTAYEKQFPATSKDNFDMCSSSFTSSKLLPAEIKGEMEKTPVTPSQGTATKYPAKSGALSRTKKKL
* hit, by the source's call. A portion of the library; most or all hits stand in other tables.

The first 6 records (preview)
SMILES	STK33 kinase inh
O=C(NC1CC2CCC(C1)N2C(=O)NC1CCCCC1)NC12CC3CC(CC(C3)C1)C2 (stereo not given)	-0.2
CCCCn1c(CCc2ccccc2)nc2cc3[nH]c(=O)c(C(C)C)nc3cc21	-1.4
CCCNC(=O)C(=O)NCCC1=CCCCC1	-1.5
O=C(CS(=O)(=O)Cc1ccccc1)N1CCN(C(=O)c2ccco2)CC1	-1.2
Cc1ccc(Nc2c([N+](=O)[O-])ccc3c2=NC2(CCCCC2)N=3)cc1	0.3
COc1ccccc1N1C(=O)C2C(C(=O)c3ccccc3)=NN(c3ccccc3)C2C1=O (stereo not given)	-0.8

Results, from the first entry:
SMILES	STK33 kinase inh
O=C(NC1CC2CCC(C1)N2C(=O)NC1CCCCC1)NC12CC3CC(CC(C3)C1)C2 (stereo not given)	-0.2
CCCCn1c(CCc2ccccc2)nc2cc3[nH]c(=O)c(C(C)C)nc3cc21	-1.4
CCCNC(=O)C(=O)NCCC1=CCCCC1	-1.5
O=C(CS(=O)(=O)Cc1ccccc1)N1CCN(C(=O)c2ccco2)CC1	-1.2
Cc1ccc(Nc2c([N+](=O)[O-])ccc3c2=NC2(CCCCC2)N=3)cc1	0.3
COc1ccccc1N1C(=O)C2C(C(=O)c3ccccc3)=NN(c3ccccc3)C2C1=O (stereo not given)	-0.8
CCc1ccc(NC(=O)CSc2ccc(-c3cccnc3)nn2)cc1	1.2
CCN(C)c1ccc(/C=N\n2nnnc2N)cc1	-0.4
Cn1c(SC2CCCCC2=O)nnc1-c1ccccc1F (stereo not given)	-0.8
Cc1cccc(NC(=O)CSCC(=O)Nc2ccccc2N2CCCC2)c1	-0.4
Cc1ccc(NC(=S)NCc2ccccc2)cc1[N+](=O)[O-]	0.8
Cc1ccccc1S(=O)(=O)/N=C(/Nc1nc2ccccc2s1)c1ccccc1	-1.6
O=C1C2=C(SCCS2)C(=O)N1c1ccccc1	-1.6
CC(Oc1ccc(F)cc1)C(=O)Nc1ccc2ccccc2c1 (stereo not given)	-1.0
O=C(c1ccc(CS(=O)Cc2ccccc2Cl)o1)N1CCN(c2cccc(Cl)c2)CC1 (stereo not given)	2.6
O=C(COC(=O)c1cccc([N+](=O)[O-])c1)NNC(=O)c1cccs1	-0.7
COc1ccccc1CNC(=O)COc1cccnc1[N+](=O)[O-]	-5.0
CC(Oc1ccc(-c2ccccc2)c(F)c1)c1ccn(S(=O)(=O)c2ccc(Br)cc2)n1 (stereo not given)	-1.3
COc1cc(NC(=O)Cn2cnc(S(=O)(=O)N3CCCCC3)c2)cc(OC)c1OC	-1.9
Cc1ccccc1CNC(=O)Cc1cccs1	-2.6
CN(C)c1ccc(C(CNC(=O)c2ccccc2Br)c2c[nH]c3ccccc23)cc1 (stereo not given)	-0.5
CCCCc1nnc(NC(=O)CS(=O)(=O)Cc2ccccc2)s1	-1.8
N#CCC(=O)Nc1ccc(C(=O)OCc2ccccc2Oc2ccccc2)cc1	0.2
COc1cccc(COC(=O)CSCC(=O)Nc2cccc(C)c2)c1OC	0.5
Cc1ccccc1-c1nn(-c2ccc(F)cc2F)cc1CNCCN(C)C	-0.5

3 entries already listed, arranged by molecular weight, lowest first:
SMILES	STK33 kinase inh
CCCCc1nnc(NC(=O)CS(=O)(=O)Cc2ccccc2)s1	-1.8
O=C(CS(=O)(=O)Cc1ccccc1)N1CCN(C(=O)c2ccco2)CC1	-1.2
COc1ccccc1N1C(=O)C2C(C(=O)c3ccccc3)=NN(c3ccccc3)C2C1=O (stereo not given)	-0.8

Copied from the results shown (2 entries):
SMILES	STK33 kinase inh
O=C(NC1CC2CCC(C1)N2C(=O)NC1CCCCC1)NC12CC3CC(CC(C3)C1)C2 (stereo not given)	-0.2
CCCCn1c(CCc2ccccc2)nc2cc3[nH]c(=O)c(C(C)C)nc3cc21	-1.4

Continued.
SMILES	STK33 kinase inh
CCOc1ccc2[nH]c(SCC(=O)OC)c([N+](=O)[O-])c2c1	-1.3
Cc1ccc(-n2ncc3c2CC(C)(C)CC3NC(=O)C2CCOCC2)cc1 (stereo not given)	-0.8
C#CCOCCOCCOCCNc1nc(N2CCN(C(=O)[C@H](CCC(=O)O)n3cc(C(N)CO)nn3)CC2)nc(N2CCN(C(=O)[C@H](CCC(=O)O)n3cc(C(N)[C@H](C)CC)nn3)CC2)n1 (stereo not given in full)	-0.9
CC(C)Cc1nc(N2CCCCC2)c(C#N)c2c1CCC2	-1.2
Cc1ccc(NC(=O)CSCC(=O)N2CCN(c3cccc(C(F)(F)F)c3)CC2)cc1	-0.7
N#CCCN/N=C(/Cc1nc2ccccc2[nH]1)c1cccc(Cl)c1	-0.4
O=C(NC(=S)Nc1nc(-c2ccc(Br)cc2)cs1)c1ccco1	-1.5
CCN(CC(=O)Nc1ccc(NC(C)=O)cc1)C(=O)c1cc(C)on1	-0.1
CCN(CC)C(=O)Oc1ccc(Br)cc1C(=O)Nc1ccc(F)cc1F	0.0
c1ccc(Cn2c(CNc3nc4ccccc4n3CCN3CCCCC3)nc3ccccc32)cc1	1.7
COc1cc(C#CC#CCN2CCCCC2)ccc1O	-0.4
CN(Cc1ccccc1)C1CCN(Cc2ccccc2[N+](=O)[O-])CC1	-0.3
COc1ccc2c(c1)c(C(=O)N/N=C/c1ccccc1Cl)c(C)n2C	-1.4
COc1ccc(OC)c(-c2csc(N(C)C(=O)Cc3ccccc3)n2)c1	-1.0
CC(C)(C)c1ccc(OC(=O)Cn2c(C(F)(F)F)nc3ccccc32)cc1	-0.6
CS(=O)(=O)N(CC(=O)Nc1ccc(Br)cc1)C1CCCCC1	-1.6
Cc1cc(C)n(CC(=O)NNC(=O)CCNC(=O)c2ccccc2Cl)n1	-1.3
COc1cccc(N2CN(C3CCCCC3)CNC2=S)c1	-0.6
CCNC(=O)COC(=O)CCNC(=O)c1cccc(C)c1	0.2
COc1ccc(CCC(=O)Nc2ccc(S(=O)(=O)N3CCOCC3)cc2)cc1	-1.3
CC1CCCCC1NC(=O)COC(=O)c1cccn1C (stereo not given)	-1.7
O=C(NN1C(=O)c2ccccc2NC1c1cccnc1)c1ccc([N+](=O)[O-])cc1 (stereo not given)	-1.2
O=C(Oc1ccc2ccc(=O)oc2c1)C1CCCCC1	-2.7
CCC1CCCCN1C(=O)CSc1nnc(-c2ccc(Cl)s2)o1 (stereo not given)	0.3
O=C(c1ccc(Cl)cc1)c1cnc2ccccn12	-1.2
SMILES	STK33 kinase inh
N=C1/C(=C\c2coc3ccccc3c2=O)C(=O)N=C2SC(c3ccncc3)=NN12	0.7
CCCN(C(=O)COc1ccc(Cl)cc1Cl)c1c(N)n(Cc2ccccc2)c(=O)[nH]c1=O	-0.8
Cc1ccc(C(C)C)c(OCC(=O)OCC(=O)NC2CCS(=O)(=O)C2)c1 (stereo not given)	-0.1
C/C(=N\NC(=O)c1ccc(F)cc1)c1ccc(N2CCOCC2)cc1	-0.9
COC(=O)c1cccc(CSC(=S)N2CCCC2)c1	0.7
CN(c1ccc(OCc2ccc([N+](=O)[O-])cc2)cc1)S(=O)(=O)c1ccccc1	-0.5
O=C(O)c1cccc(Nc2nc(C(F)(F)F)nc3ccccc23)c1	2.0
CCOC(=O)C(=CNc1ccccc1C)C(=O)OCC	0.1
CC(Sc1nc(-c2ccco2)nc2c1c(=O)n(C)c(=O)n2C)C(=O)O (stereo not given)	-0.3
CCOC(=O)c1sc(NC(=O)COc2ncnc3ccccc23)c(C(=O)OCC)c1C	-0.7
CCN1CCCc2cc(CN(CCN3CCOCC3)C(=S)Nc3cccc(Cl)c3)ccc21	0.4
COc1ccc(/C=N\Nc2ncc(F)c(N3CCOCC3)n2)cc1OC	-0.4
COc1ccc(-c2nc(SCC(=O)Nc3c(F)cccc3F)n[nH]2)cc1	3.2
c1ccc(SCCN2CCc3ccccc3C2)cc1	-1.4
CCCCn1c(CCC(=O)O)nc2c1c(=O)[nH]c(=O)n2CCC	0.9
Cc1ccc(NS(=O)(=O)c2c(C(=O)N3CCOCC3)c(C)n(C)c2C)cc1	-0.4
CCCS(=O)(=O)Nc1cccc(-c2nc3cccnc3s2)c1	0.8
CN(C(=O)CCN1C(=O)c2ccccc2C1=O)c1ccccc1	-1.4
Cc1ccccc1NC(=O)c1cccc(S(=O)(=O)Oc2ccc([N+](=O)[O-])cc2)c1	-0.2
O=C(Nc1nc(-c2ccncc2)cs1)C1c2ccccc2Oc2ccccc21	-2.1
O=[N+]([O-])c1cc(C(F)(F)F)cc([N+](=O)[O-])c1Sc1n[nH]c(C(F)(F)F)n1	0.0
NS(=O)(=O)c1ccc(N/N=C/c2ccncc2)cc1	-0.5
CNC(C)C#Cc1ccc2sc3cc(OC)c(OC)cc3c(=O)c2c1 (stereo not given)	0.9
O=C(Nc1nnc(Cc2ccccc2F)s1)c1ccccc1Cl	-2.3
COc1cc(C(=O)Oc2cccc(/C=N/NC(=O)c3cc(C)[nH]n3)c2)cc(OC)c1OC	2.5
SMILES	STK33 kinase inh
OCC1CCCC(n2cnc3c(=S)nc[nH]c32)O1 (stereo not given)	-1.0
COc1ccc(/C(O)=C2/C(=O)C(=O)N(c3ncccn3)C2c2ccc(OC)cc2)cc1 (stereo not given)	-1.8
COc1ccc(CCNC(=O)c2ccncc2)cc1OC	-2.7
COc1ccc(/C=N/NC(=O)c2ccc(Br)cc2)cc1CN1CCOCC1	0.0
COc1ccc(OCCCC(=O)OCC(=O)c2ccc3c(c2)NC(=O)CO3)cc1	0.2
Cn1c(=O)c2ccccc2n(CC(=O)N2CCCc3ccccc32)c1=O	-2.2
COCCn1cc(C(=O)NCCCN2CCC(C)CC2)c2c3ccccc3n(C)c2c1=O	-0.7
CCNC(=S)Nc1cccc(F)c1C	-0.5
O=[N+]([O-])c1ccc(S(=O)(=O)Nc2cccc(-c3ccc(N4CCCC4)nn3)c2)cc1	0.1
CC(C)(Oc1ccc(Cl)cc1)C(=O)NC1CCCCC1	-1.1
CCN(CC)CCCNC(=O)c1cc2nc(-c3ccccc3)cc(C(F)(F)F)n2n1	-1.2
CC(=O)Nc1ccc(OCc2ccc(S(=O)(=O)Cc3ccccc3)cc2)cc1	0.2
Nn1c(SCc2cccc(Br)c2)nnc1-c1ccncc1	-1.4
CCN(CC)CCCNC(=O)c1cc(Sc2nnc(C)s2)nc2ccccc12	0.8
CCc1noc(C)c1C(=O)N1CCN(S(=O)(=O)c2ccc(Br)cc2)CC1	-0.3
N#C/C(N)=C(/C#N)N=Cc1cccc(Cl)c1	-0.6
COc1ccccc1NC(=O)CSc1nnc(-c2ccoc2C)n1C	0.4
COc1cnn(Cc2ccccc2)c(=O)c1SCc1ccccc1	0.0
CN(C)S(=O)(=O)c1ccc(C(=O)NCCC(=O)N2CCCC2)cc1	2.1
Cc1ccc(C(CCN)c2ccco2)cc1 (stereo not given)	1.2
COc1ccc(NCc2ccccc2[N+](=O)[O-])cc1OC	-3.3
COc1ccnc2c1c(=O)n(Cc1cccc(Cl)c1)c(=O)n2C	-0.2
CCOC(=O)C1CCCN(c2c(N3CCN(c4cccc(Cl)c4)CC3)c(=O)c2=O)C1 (stereo not given)	0.1
O=C(NCc1ccccc1)/C(NC(=O)c1ccccc1)=C(/Sc1ccccn1)c1ccccc1	-0.4
Cc1cccn2c(=O)c3cc(C(=O)NC4CCCCC4)sc3nc12	0.6

Random excerpt: seven compounds from above, in no set order.
SMILES	STK33 kinase inh
CN(Cc1ccccc1)C1CCN(Cc2ccccc2[N+](=O)[O-])CC1	-0.3
CCOC(=O)C(=CNc1ccccc1C)C(=O)OCC	0.1
Cc1ccc(NC(=O)CSCC(=O)N2CCN(c3cccc(C(F)(F)F)c3)CC2)cc1	-0.7
CCCN(C(=O)COc1ccc(Cl)cc1Cl)c1c(N)n(Cc2ccccc2)c(=O)[nH]c1=O	-0.8
CNC(C)C#Cc1ccc2sc3cc(OC)c(OC)cc3c(=O)c2c1 (stereo not given)	0.9
CCN1CCCc2cc(CN(CCN3CCOCC3)C(=S)Nc3cccc(Cl)c3)ccc21	0.4
CCNC(=S)Nc1cccc(F)c1C	-0.5

Next section:
SMILES	STK33 kinase inh
CCOC(=O)C1CCN(C(=O)N2CCOCC2)CC1	-0.3
CCOc1cc(C(=O)OCC(=O)Nc2ccc(SC(F)F)cc2)cc(OCC)c1OCC	1.8
Cc1ccc2nc(/C(C#N)=C/c3ccccc3C(=O)O)[nH]c2c1	-0.4
O=c1cc(-c2ccccc2)[nH]c2cc(Cl)ccc12	-1.8
CC(C)Nc1nnc(SCC(=O)/C=C2\N(C)c3ccccc3C2(C)C)s1	0.1
COc1ccc(C2c3[nH]c4ccccc4c3CCN2C(=O)c2ccccc2C(C)=O)c(F)c1 (stereo not given)	0.0
O=C(O)c1ccc2oc(SCC(=O)N3CCCCC3)nc2c1	-0.8
CCCCOc1c(C(=O)Nc2ccccc2)nnn1-c1ccccc1	-0.9
Cn1nnnc1SCCNC(=O)C1CCC(=O)N(CCc2ccccc2)C1 (stereo not given)	-0.6
Cc1ccc(C)c(N(C(=O)CNC(=O)c2ccco2)C(C(=O)NCC2CCCO2)c2ccccc2)c1 (stereo not given)	6.1
Cc1cccc(S(=O)(=O)CC(=O)Nc2nc(-c3ccccc3)cs2)c1	0.6
NNC(=O)c1nnn(-c2nonc2N)c1-c1cccs1	0.0
CCCc1cc(N2CCC(C(N)=O)CC2)nc(-c2ccccc2)n1	-0.5
COc1cccc(COC(=O)c2nn(-c3ccccc3)nc2N)c1	-2.4
COc1ccc(CNC(=O)C(C)N(Cc2ccco2)C(=O)c2snc(C(N)=O)c2N)cc1 (stereo not given)	0.1
CC1CCN(C(=O)CSc2nc(=O)n3cc(Cl)ccc3n2)CC1	-0.5
CC(C)(C)c1ccc(OCC(=O)NC2CCS(=O)(=O)C2)cc1 (stereo not given)	-4.3
c1cc2c(cc1Cn1cnnn1)OCO2	-1.2
CC(=O)Nc1ccc(NC(=O)c2ccc(CSc3ccccc3)o2)cc1	-0.9
CCOC(=O)C1CCN(C(=O)c2cccc(S(=O)(=O)Nc3ccc(C)cc3C)c2)CC1	-1.8
O=C(COc1coc(CN2CCN(c3ccc(F)cc3)CC2)cc1=O)NC1CCCC1	0.1
CC(=O)Nc1c(C(=O)N2CCCCCC2)cnn1-c1ccccc1	-1.1
CC(C)(C)OC(=O)C[C@H]1C/C=C\C[C@@H](CC(=O)N(CCO)Cc2ccccc2)C(=O)N[C@H](Cc2c[nH]c3ccccc23)COC1=O	0.8
COc1cccc(C2NC(=O)NC(C)=C2C(=O)Nc2ccc(C)cc2)c1OC (stereo not given)	-2.7
CN1CCN(C(=O)/C=C/c2ccc3c(c2)OCO3)CC1	4.3
CC(C)CCNC(=O)C1CCC(CNc2c(N3CCCC3)c(=O)c2=O)CC1 (stereo not given)	0.1

High-throughput results as filed in PubChem.
